TRPML1 agonist: qHTS for Agonists of the Human Mucolipin Transient Receptor Potential 1 (TRPML1). Mucolipin-1 (Homo sapiens), Q9GZU1. TRPML1-expressing cells, Ca2+ dye fluorescence, FDSS; host cell line not named in the record; reference of the full effect not given here. activation, % (concentration not given with the values). hit rate 0.12% among 410,000. AID 624414, 2012; in the data active = activation above about 50%; inconclusive = about 30% to 50%; inactive = below about 30%; further: 0% is about no effect; the text of the record puts the active cut at 80%
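Cells: TRPML1-DL, 1X Tet inducer, ~16 h at 37 degrees C/5% CO2. Dye: ABD Ca8 no-wash + quencher, 45-90 min RT. Read: 10 s baseline, compound add, 110 s agonist phase; 54-4 EC80 (4uM final), 110 s antagonist phase.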
PINK1 expr mod: A Quantitative High throughput Screen to Identify Chemical Modulators of PINK1 Expression | PINK1 immunofluorescence, high-content cytometry, 24 h | Potency, µM (titrated, usually from 76.6 µM), inactives show at the top dose activation (PINK1 increase), most hits filed as activators | hit rate 0.2% among 410,000 | AID 624263, 2012; active = well fitted activation curve with a large enough effect; inconclusive = small, poorly fitted or top-dose-only effect; inactive = flat fitted curve, though single readings scatter; cell line not stated here;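 further: potency means the concentration at half of the fitted maximal effect; % of control where 0% means no effect; nearly all actives have a fitted effect of over 65% in size; a mitochondrial uncoupler was the plate control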
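Readout is PINK1 immunofluorescence, quantified alongside mitochondrial, cell and nuclear markers by laser-scanning microplate cytometry. Cells from a stable line were exposed to compound titrations (5 concentrations) for 24 hours, with CCCP controls.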
CtBP-E1A inh: qHTS Assay for Inhibitors of the CtBP/E1A Interaction; AlphaScreen GST-E1A/His-CtBP binding, 1536-well; stronger effect = lower value; control for the full effect not named in the record; activity change, % (test concentration not listed); hit rate 0.49% among 340,000; in the data active means activity change below about -65%; inconclusive means about -30% to -65%; inactive means above about -30%; further: on the % scale 0 is the no-effect control and ±100 the full control effect; compound concentration not given in the record
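GST-E1A and His-tagged CtBP (125 nM each as 5X stock) were preincubated with pin-transferred compound for 2 h at 37 °C in the dark, then glutathione donor and nickel acceptor beads were added for 1 h before AlphaScreen reading.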
D2 potentiator: Beta-Arrestin HTS for Positive Allosteric Modulators of the Human D2 Dopamine Receptor: Potentiators. DiscoveRx D2 beta-arrestin cells, luminescence, 90 min; 100% = 57 uM dopamine signal. potentiation, % (no concentration beside the values). hit rate 0.23% among 360,000. AID 624464, 2012; active = potentiation of 50% or more; inconclusive = 30% to 50%; inactive = 30% or less;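 further: compound concentration not given in the record; tested on top of an EC20 dose of dopamine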
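PathHunter beta-arrestin assay in DiscoveRx D2 cells. Compounds were added with an EC20 of dopamine (50 nM final) for 90 min at 37 deg C. Luminescence was read 1 h after detection reagent, with 57 uM dopamine as the EC100 control.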
D2 ag: Beta-Arrestin HTS for Positive Allosteric Modulators of the Human D2 Dopamine Receptor: Agonists; D(2) dopamine receptor (Homo sapiens), P14416; DiscoveRx PathHunter D2 beta-arrestin, luminescence, 90 min; 100% = 57 uM dopamine signal; activation, % (no concentration beside the values); hit rate 0.084% among 360,000; AID 624465, 2012; in the data active = activation above about 40%; inconclusive = about 15% to 40%; inactive = below about 15%; further: compound concentration not given in the record; the text of the record calls up to 30% inactive
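DiscoveRx PathHunter D2 beta-arrestin cells (2,100/well) attached overnight, then compound-stimulated 90 min at 37 C in HBSS/10 mM HEPES/0.1% Tween-20 buffer; beta-galactosidase complementation read by luminescence after 1 h at ambient temperature. Dopamine 57 uM final (EC100) as control.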
Six1-Eya2 blk: qHTS Assay for Inhibitors of the Six1/Eya2 Interaction | Homeobox protein SIX1 (Homo sapiens) + Protein phosphatase EYA2 (Homo sapiens), … | AlphaScreen GST-Six1/His-Eya2 binding, biochemical; stronger effect = lower value; control for the full effect not named in the record | activity change, % (test concentration not listed) | hit rate 0.56% among 360,000; in the data active = activity change below about -65%; inconclusive = about -30% to -65%; inactive = above about -30%; further: on the % scale 0 is the no-effect control and ±100 the full control effect; compound concentration not given in the record
Target sequence (O00167 whole entry, looked up): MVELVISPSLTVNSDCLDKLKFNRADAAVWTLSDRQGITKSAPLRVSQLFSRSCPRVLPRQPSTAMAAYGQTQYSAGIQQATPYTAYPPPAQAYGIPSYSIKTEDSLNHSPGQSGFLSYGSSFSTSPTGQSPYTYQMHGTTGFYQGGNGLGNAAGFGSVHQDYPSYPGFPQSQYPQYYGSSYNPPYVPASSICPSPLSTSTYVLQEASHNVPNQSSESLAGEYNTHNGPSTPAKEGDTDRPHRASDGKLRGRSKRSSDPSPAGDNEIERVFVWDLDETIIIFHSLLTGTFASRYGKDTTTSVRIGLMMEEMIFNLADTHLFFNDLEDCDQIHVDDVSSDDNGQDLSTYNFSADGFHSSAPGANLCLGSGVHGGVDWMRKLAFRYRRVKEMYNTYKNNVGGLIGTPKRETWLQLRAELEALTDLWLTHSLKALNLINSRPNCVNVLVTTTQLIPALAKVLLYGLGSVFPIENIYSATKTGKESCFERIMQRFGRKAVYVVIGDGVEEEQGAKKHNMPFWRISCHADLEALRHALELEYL
Target sequence (Q15475 whole entry, looked up): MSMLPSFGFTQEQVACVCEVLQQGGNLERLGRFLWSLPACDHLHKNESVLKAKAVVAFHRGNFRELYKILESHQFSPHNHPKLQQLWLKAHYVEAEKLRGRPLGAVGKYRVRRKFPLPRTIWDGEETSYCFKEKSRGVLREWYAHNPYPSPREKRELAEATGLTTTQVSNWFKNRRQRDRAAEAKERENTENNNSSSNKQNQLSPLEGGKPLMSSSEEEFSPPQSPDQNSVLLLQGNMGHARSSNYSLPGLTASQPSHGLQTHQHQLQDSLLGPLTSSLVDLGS
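Six1/Eya2 binding was read as AlphaScreen signal after compounds were pinned into GST-Six1 plus His-tagged Eya2 (5X stock 250/500 nM) in pH 8.0 Tris/NaCl/TCEP buffer, beads added, then incubated 1 h, 37 C, dark.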
Numbers without * were called inactive; ? = inconclusive; . = not tested or not shown; [ ] = dose if it differs, or a comment.

SMILES | TRPML1 agonist | PINK1 expr mod | CtBP-E1A inh | D2 potentiator | D2 ag | Six1-Eya2 blk
Cc1nn(CC(=O)NC(C)C)c(C)c1[N+](=O)[O-] | -0.5 | 1.1% | 13.8 | -6.9 | -1.1 | 2.6
Cc1cc(C)c(NC(=O)CN(C)C(=O)CCC(=O)c2ccc(C)s2)c(C)c1 | 0.2 | 1.6% | -13.4 | -0.5 | -3.2 | 7.8
COc1ccc(C)cc1NC(=O)CN(c1ccc(C)cc1)S(C)(=O)=O | 0.4 | 0.1% | 4.1 | -4.0 | 2.0 | 5.1
COc1cccc(C(=O)COC(=O)c2ccc(NC(C)=O)cc2)c1 | -0.7 | -1.4% | 5.7 | 23.7 | -0.7 | -1.5
O=C(CN1C(=O)NC(Cc2c[nH]c3ccccc23)C1=O)NCC(F)(F)F (stereo not given) | 2.8 | -0.4% | 6.1 | -2.8 | 0.5 | 6.9
COCCCNC(=O)CC1C[C@H](C(=O)N2CCOCC2)[C@@]2(C)c3[nH]c4ccc(OC)cc4c3CCN2C1=O (stereo not given in full) | -0.4 | 0.9% | 10.7 | -2.8 | -3.8 | 1.2
COc1ccc(NC(=O)C2CC(=O)N(c3cc(C)ccc3C)C2)cc1 (stereo not given) | -0.6 | 2.0% | 3.0 | 0.3 | -1.2 | 12.6
CCOc1ccc(N2C(=O)CC(Sc3nc(O)c(CC)c(=O)[nH]3)C2=O)cc1 (stereo not given) | 0.6 | 0.0% | 2.3 | -9.1 | -1.5 | 10.6
Cc1cccc(NC(=O)CN2NS(=O)(=O)c3ccccc3C2=O)c1 | -0.4 | 0.5%[38.3 µM] | 1.2 | -9.6 | -2.2 | 1.3
CCOc1ccc(CCNC(=O)Cn2ncn3nc(-c4ccc(OC)cc4)cc3c2=O)cc1OCC | -0.5 | 1.3% | . | -0.3 | 5.1 | -0.1
COc1ccc(NC(=O)c2csc(Cc3ccc(Cl)cc3)n2)cc1 | 5.2 | 0.2% | -2.0 | -6.0 | -3.6 | -3.9
CS(=O)(=O)N(CC(=O)N1CCc2ccccc2C1)c1cccc(Br)c1 | 3.1 | -0.3% | . | -1.4 | 3.4 | 3.3
Cc1cc(C)c(C2=Nn3c(C)nnc3SC2C)cc1C (stereo not given) | 0.9 | -1.4% | -1.4 | -6.8 | -3.0 | -11.0
O=C(Nc1ccc(F)c(Cl)c1)c1cc(C2CCCN(C(=O)CCc3ccccc3)C2)on1 (stereo not given) | -0.2 | -0.2% | -0.2 | -3.9 | 2.8 | -4.3
COc1ccc(N2CC(C(=O)N/N=C/c3ccccc3)CC2=O)cc1 (stereo not given) | 0.4 | -2.5% | -3.3 | -3.6 | -2.0 | 2.8
CC1=C(C(=O)Nc2cc(C(=O)N3CCN(c4ccc(Cl)cc4)CC3)ccc2C)SCCO1 | 0.8 | 0.1% | -23.2 | -12.3 | -1.4 | -16.0
CCn1ncc(Br)c1C(=O)Nc1sc2c(c1C(N)=O)CCC2 | 1.1 | . | -10.8 | -9.9 | -0.7 | -12.0
COc1ccc2[nH]c3c(c2c1)CCN1C(=O)C(CC(=O)NCCc2ccccn2)C[C@H](C(=O)N2CCOCC2)[C@@]31CCC1CCCC1 (stereo not given in full) | -0.7 | 1.2% | -0.3 | -1.9 | -2.0 | -2.2
O=C(NCc1ccco1)C1CCCCN1S(=O)(=O)c1ccc(F)cc1 (stereo not given) | -0.8 | -4.2% | 1.1 | 3.3 | -1.3 | -3.0
COc1cc(OC)c(-c2noc(C(=O)OC(C)(C)C)c2C(=O)OC(C)(C)C)c(OC)c1 | 0.9 | 4.2% | 4.9 | -7.5 | -4.6 | 2.6
Cc1ccnc(NC(=O)c2ccc(Cl)c(NC(=O)C(C)Oc3ccccc3)c2)c1 (stereo not given) | 3.9 | 0.3% | -17.7 | -3.5 | 4.8 | -1.3
Cc1ccc2nc(C)cc(OCC(=O)O)c2c1 | -0.7 | 0.0% | 5.9 | -3.4 | -2.0 | -1.5
COc1ccc(C(CNC(=O)c2cc(S(=O)(=O)N3CCN(c4ccccc4)CC3)ccc2Cl)N(C)C)cc1 (stereo not given) | -1.0 | 3.3% | . | -26.3 | -2.4 | -29.3
O=C1N/C(=N\N=C\c2ccc3ncccc3c2)SC1Cc1ccc(SC(F)F)cc1 (stereo not given) | -0.7 | -7.0%[38.3 µM] | -1.5 | -7.7 | -4.0 | 1.5
CN1CCc2c(sc3nc(SCC(=O)N4CCOCC4)nc(N)c23)C1 | 0.1 | 1.4% | -23.1 | 0.9 | -2.3 | -17.7
Cc1cc(C)n(CCC(=O)N=Nc2c(O)[nH]c3ccc(Br)cc23)n1 | 0.8 | 1.2% | -11.5 | -2.7 | -3.0 | -2.1
Cc1cc(SCC(=O)c2ccccc2)n2nc(C)nc2n1 | 1.4 | -4.3% | -5.2 | -7.6 | -2.1 | -6.7
Cc1nc2cc(NC(=O)c3ccc([N+](=O)[O-])s3)ccc2s1 | 0.1 | 1.9% | -0.8 | ? | ? | -8.4
O=S(=O)(NCC1CCCO1)c1ccc(Br)s1 (stereo not given) | -0.4 | -0.4% | 4.9 | 0.9 | -2.2 | 4.1
CC1CCN(S(=O)(=O)c2cccc(C(=O)NCc3ccco3)c2)CC1 | -0.3 | 1.0% | 10.1 | -7.6 | -4.0 | 8.4
COc1ccc(C2=CC(=O)CC(c3ccccc3)C2)cc1 (stereo not given) | 0.5 | -0.5% | 9.0 | -2.7 | 3.0 | -1.0
C#CCOCCOCCOCCNc1nc(N2CCN(C(=O)[C@H]([C@@H](C)O)n3cc(CCCCN)nn3)CC2)nc(N2CCN(C(=O)[C@H](C)n3cc(CCC(=O)O)nn3)CC2)n1 | -0.6 | 1.3% | 0.0 | -5.3 | -0.2 | 15.8
CC(C)CC(NC(=O)c1ccc(C#CC(C)(C)O)s1)C(=O)O (stereo not given) | 0.8 | 2.2% | -1.5 | 1.1 | 1.2 | 1.4
CC(NS(=O)(=O)/C=C/c1ccccc1)C(=O)O (stereo not given) | 0.1 | -0.7% | -9.5 | -25.0 | -1.8 | -8.6
CCN(C(=O)COC(=O)CCC(=O)c1ccc(Cl)cc1)c1c(N)n(Cc2ccccc2)c(=O)[nH]c1=O | -0.7 | 1.6% | . | -2.1 | 2.8 | 1.6
COCC(=O)N1CCC(Oc2ccc(C(=O)N3C[C@H]4CC[C@H]3C4)cc2)CC1 | -0.3 | 1.4% | 3.8 | 3.9 | -3.5 | 0.4
NS(=O)(=O)c1ccc(CCNC(=O)CN2CCN(c3ccc(F)cc3)CC2)cc1 | -0.6 | 2.4% | -1.7 | -4.7 | 0.4 | -4.5
O=C(Cc1ccccc1)Nc1cc(Cl)ccc1Sc1ccccc1 | 1.6 | 12.7% | 18.8 | 1.3 | 1.4 | 45.0
COc1ccccc1-n1c(-c2cn(C)nc2C)n[nH]c1=S | 0.3 | -0.3% | -1.2 | -3.1 | 1.8 | -1.1
COc1ccc(NC(=O)c2oc3ccccc3c2NC(=O)C2CC2)c(OC)c1 | 0.6 | 8.0% | 5.1 | -3.4 | 4.1 | 4.4
Cc1ccc(NC(=S)NCc2ccc(F)cc2)c(C)c1 | -0.7 | 3.5% | -10.0 | -4.0 | -2.8 | -1.4
O=C(COC(=O)CCN1C(=O)/C(=C\C=C\c2ccccc2)SC1=S)Nc1cc(F)ccc1F | 1.1 | 0.7% | -11.6 | -9.5 | -4.0 | -21.5
Cc1cc(-n2c(C)cc(C(=O)CCl)c2C)no1 | 0.5 | -2.1% | 0.0 | -5.5 | -3.7 | 0.3
CNc1nnc(Sc2ncccc2[N+](=O)[O-])s1 | -0.2 | 5.3% | 2.5 | 9.7 | 1.7 | 1.8
c1ccc(COc2ncnc3c2ncn3CCCN2CCN(c3ccccn3)CC2)cc1 | 1.8 | -1.5% | -21.2 | -12.6 | 3.5 | -14.8

Ordered by value in D2 potentiator (low to high): three of the compounds above
Molecule | D2 potentiator
COc1cc(OC)c(-c2noc(C(=O)OC(C)(C)C)c2C(=O)OC(C)(C)C)c(OC)c1 | -7.5
O=C(CN1C(=O)NC(Cc2c[nH]c3ccccc23)C1=O)NCC(F)(F)F (stereo not given) | -2.8
COc1ccc(C2=CC(=O)CC(c3ccccc3)C2)cc1 (stereo not given) | -2.7

Continuation.
SMILES | TRPML1 agonist | PINK1 expr mod | CtBP-E1A inh | D2 potentiator | D2 ag | Six1-Eya2 blk
CC(C)CCN(C(=S)Nc1cccc(C(F)(F)F)c1)C(C)c1ccccn1 (stereo not given) | 1.1 | 2.2% | 10.6 | 3.5 | 4.3 | 1.7
O=[N+]([O-])c1cccc(C(=NCc2ccccc2)NO)c1 | -0.2 | 0.7% | 2.8 | 1.4 | 2.6 | 7.6
CC(NC(=O)c1cc2c(s1)CS(=O)(=O)C2)c1ccccc1 (stereo not given) | -1.2 | -0.9% | . | -9.7 | 2.6 | ?
O=C(O)C(O)Cc1c[nH]c2ccccc12 (stereo not given) | . | -0.5% | 5.5 | -26.9 | -6.4 | 10.6
C/C(=N\NC(=O)C(=O)N/N=C(\C)c1cccc(O)c1)c1cccc(O)c1 | -0.1 | -0.8% | -9.6 | -3.8 | 2.6 | -10.0
O=C(COc1ccccc1)N/N=C/c1cc2c(cc1[N+](=O)[O-])OCO2 | 0.9 | 0.3%[38.3 µM] | 2.3 | -17.8 | 0.4 | -11.1
CCn1c(SCC(=O)NC(=O)NC(C)(C)C)nc2ccccc21 | 3.1 | 2.7% | -12.0 | 2.0 | -2.3 | 3.2
COc1cc(OC)cc(C(=O)NCC(=O)OCC(=O)NCc2ccco2)c1 | 0.1 | -2.0% | 7.3 | -13.1 | -4.4 | -0.5
COc1ccc(OCC(=O)Nc2ccc3c(c2)nc(CN2CCCC2)n3C)cc1 | -0.2 | -0.4% | 2.9 | -34.0 | -0.9 | -0.5
CCc1ccc(OCC(=O)N/N=C(\C)c2ccc3c(c2)OCCO3)cc1 | 2.1 | 1.9% | 11.7 | -10.1 | -2.8 | 8.8
COc1cccc(C2NC(CCSC)(C(=O)O)C3C(=O)N(C(C)C)C(=O)C23)c1O (stereo not given) | 0.4 | 2.7% | 0.0 | -21.9 | -4.3 | 4.7
COc1ccc(NS(=O)(=O)N2CCCCC2)cc1 | 0.8 | 1.7% | 3.4 | -6.6 | -0.8 | -2.2
COc1ccc(C(=O)Nc2nnc(S(=O)(=O)N(C)Cc3ccccc3)s2)cc1 | 0.6 | 2.3% | . | -1.8 | 2.2 | 6.4
CCn1c(N2CCN(CC(=O)c3ccc(OC)cc3)CC2)nc2ccccc21 | 2.8 | -0.7% | -12.5 | -21.4 | -2.5 | -0.3

Screening results deposited in PubChem by National Center for Advancing Translational Sciences (NCATS).
